2A StopGo – High Throughput Screening for Foot and Mouth Disease Virus Antivirals; human cells with a luciferase reporter of 2A StopGo recoding; control for the full effect not named in the record; Potency, µM (titrated, usually from 57.9 µM), inactives show at the top dose signal change, negative = less light; 410,000 tested, 1.2% active; AID 1159524, 2015; active = well fitted falling curve with a large enough effect; inconclusive = small, poorly fitted or top-dose-only effect; inactive = no such curve, though single readings can be large or run the other way; tested in HEK293T cells; also: % is scaled to controls: 0 for no effect and ±100 for the full control effect; nearly all actives have a fitted effect of over 45% in size; luciferase light after 4 h
Cruzain inh noDet – qHTS Assay for Promiscuous and Specific Inhibitors of Cruzain (without detergent); Cruzipain (Trypanosoma cruzi), P25779; 200,000 tested, 2.3% active; purified cruzain, Z-FR-AMC fluorescence, no detergent; Potency, µM, inactives show max response, negative = inhibition, hits mostly inhibitors;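 also: plate controls were enzyme without inhibitor for no effect and buffer without enzyme for full effect; nearly all actives have a fitted effect of over 40% in size; top concentration of the series not given in the record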
Target sequence (P25779 123-467 limits assumed): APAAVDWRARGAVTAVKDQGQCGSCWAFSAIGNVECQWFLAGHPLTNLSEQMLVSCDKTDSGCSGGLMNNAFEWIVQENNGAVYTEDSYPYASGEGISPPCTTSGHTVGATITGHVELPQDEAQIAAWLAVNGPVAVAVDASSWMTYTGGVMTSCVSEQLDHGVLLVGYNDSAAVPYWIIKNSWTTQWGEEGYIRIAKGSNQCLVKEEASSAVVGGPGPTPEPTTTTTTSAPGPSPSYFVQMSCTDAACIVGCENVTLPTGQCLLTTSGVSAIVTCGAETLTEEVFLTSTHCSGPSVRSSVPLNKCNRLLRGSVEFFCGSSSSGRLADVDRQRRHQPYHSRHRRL
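Purified cruzain at 1.5 nM, pre-incubated 15 min with compound at room temperature in 100 mM sodium acetate pH 5.5, 5 mM DTT, 0.00005% Triton X-100. Reaction started with 2 uM Z-FR-AMC; AMC fluorescence increase over 60 s gives rate.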
Cruzain inh Det – qHTS Assay for Promiscuous and Specific Inhibitors of Cruzain (with detergent); 200,000 tested, 0.43% active; purified cruzain, Z-FR-AMC fluorescence, 0.01% Triton; Cruzipain (Trypanosoma cruzi), P25779; Potency, µM, without a hit: max response, negative = inhibition, most hits filed as inhibitors; AID 1478, 2009;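 also: plate controls were neutral wells for no effect and buffer without enzyme for full effect; nearly all actives have a fitted effect of over 40% in size; top concentration of the series not given in the record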
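15 min RT preincubation of 1.5 nM cruzain with compound, then 2 uM Z-FR-AMC added; kinetic AMC fluorescence, 60 s delta. Triton X-100 0.01%, pH 5.5.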
NS1 inh – qHTS Assay for Inhibitors of Influenza NS1 Protein Function | S. cerevisiae slowed by influenza A NS1, growth recovery by OD600 | 270,000 tested, 0.4% active | Potency, µM (top dose mostly 46.1 µM), without a hit: at the highest dose activity, positive = more growth; active means well fitted rising curve with a large enough effect; inconclusive means small, poorly fitted or top-dose-only effect; inactive means no such curve, though single readings can be large or run the other way; also: nearly all actives have a fitted effect of over 50% in size
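In this qHTS, NS1 from influenza A is expressed in budding yeast, where it slows growth. Cells are switched from glucose to 2% galactose medium (pH 6.0, -URA), treated with compound, and growth recovery is read at OD600.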
RE007 growth inh – qHTS Assay for Inhibitors of the HIV-1 protein Vpr. S. pombe RE007 Vpr strain, BacTiter-Glo ATP luminescence, 24 h; control for the full effect not named in the record. 360,000 tested, 0.21% active. Potency, µM (doses to about 92.2 µM), for inactives: top-dose activity change, negative = less growth. AID 651644, 2012; active = well fitted falling curve with a large enough effect; inconclusive = small, poorly fitted or top-dose-only effect; inactive = no such curve, though single readings can be large or run the other way;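 also: % is scaled to controls: 0 for no effect and ±100 for the full control effect; nearly all actives have a fitted effect of over 50% in size; the assay follows cell death caused by Vpr and the record does not say whether a fall means rescue or toxicity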
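Fission yeast RE007 carrying one integrated HIV-1 vpr copy, seeded at OD 0.01 in PMG+AL medium with 23 nL pinned compound. Grown 24 h at 30 degrees; viability read by BacTiter-Glo luminescence after 5 min.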
MARV entry inh – qHTS for inhibitors of binding or entry into cells for Marburg Virus. 300,000 tested, 1.8% active. Potency, µM (top dose mostly 37.8 µM), for inactives: at the highest dose activity change, negative = inhibition, hits mostly inhibitors. Marburg virus pseudotyped entry inhibition, cell reporter; control for the full effect not named in the record; about a third of the inactives were read at about 46 µM; active = well fitted inhibition curve with a large enough effect; inconclusive = small, poorly fitted or top-dose-only effect, or effect the other way; inactive = flat fitted curve, though single readings scatter; tested in HEK293 cells; about a fifth of its hits are not listed in these tables; also: % is scaled to controls: 0 for no effect and ±100 for the full control effect; luciferase read-out
LASV entry inh – qHTS for Inhibitors of binding or entry into cells for Lassa Virus | Lassa virus pseudotype entry inhibition, cell reporter; control for the full effect not named in the record | 300,000 tested, 1.2% active | Potency, µM (highest dose often 37.9 µM), without a hit: top-dose activity change, negative = inhibition, actives largely listed as inhibitors; active means well fitted inhibition curve with a large enough effect; inconclusive means small, poorly fitted or top-dose-only effect, or effect the other way; inactive means flat fitted curve, though single readings scatter; tested in HEK293 cells; also: % is scaled to controls: 0 for no effect and ±100 for the full control effect; nearly all actives have a fitted effect of over 50% in size; luciferase read-out
SARS PLpro yeast – qHTS of Yeast-based Assay for SARS-CoV PLP; S. cerevisiae expressing SARS-CoV PLpro, growth rescue; control for the full effect not named in the record; Potency, µM (top dose mostly 32.9 µM), without a hit: top-dose activity, positive = growth rescue; 330,000 tested, 0.19% active; active means well fitted rising curve with a large enough effect; inconclusive means small, poorly fitted or top-dose-only effect; inactive means no such curve, though single readings can be large or run the other way; also: 0% is about no effect; nearly all actives have a fitted effect of over 55% in size; growth read by luminescence after 48 h
* = called active by the depositor; ? = inconclusive; . = no result given; & = joins results of further samples; [ ] = dose if it differs, or a comment. Unless noted, calls follow the shape of the dose curve; as a rule, active = well fitted curve in the direction sought with a large enough effect; inconclusive = small, poorly fitted or top-dose-only effect, or another doubt; inactive = no such curve, though single readings can be large; an effect the other way counts as inactive or inconclusive. Potency is read from the fitted curve at half-maximal effect.

1) CS(=O)(=O)N(CCc1ccccc1)CC(=O)N1CCN(c2ccccc2)CC1
2) COC(=O)C(Cc1ccccc1)NC(=O)CCNC(=O)c1ccco1 (configuration not stated)
3) CCOC(=O)C1C(=O)CC(C)(O)C(C(=O)OCC)C1c1ccc(C)s1 (configuration not stated)
4) Cc1cc2c(=Cc3ccc(N(C)C)cc3)c3ccccc3n2[n+]1C
5) COc1ccccc1N1CCN(c2ncnc3c2cnn3-c2cccc(Cl)c2)CC1
6) FC(F)(F)c1cccc(Oc2ccc3c(C(F)(F)F)cc(C(F)(F)F)nc3n2)c1
7) Cc1ccc(C2=NCC(=O)Nc3ccc(Br)cc32)cc1
8) COc1cc(OC)c(C(=O)Nc2ccc(N(C)C)cc2)cc1OC

assay / compound	1	2	3	4	5	6	7	8
2A StopGo	?	-10%	0%	0%	?	-23%	-14%	52%[activator]
Cruzain inh noDet	?	.	16%	.	-15%	-6%	.	-10%
Cruzain inh Det	2.8%	.	-0.2%	.	-0.8%	4.8%	.	-1.6%
NS1 inh	-5%	-10%	-9%	.	.	22%	3%	-13%
RE007 growth inh	6%	6%	3%	0%	.	16%	2%	-3%
MARV entry inh	-17%[46.1 µM]	-8%[46.1 µM]	8%	?	.	-19%	-10%	-1%[46.1 µM]
LASV entry inh	-31%	3%	18%	2.2µM*	-1%[46.1 µM]	-8%	-11%	5%
SARS PLpro yeast	-2%	-3%	-4%	.	.	-3%	-7%	.

Down the list, quoted from above:
Cruzain inh noDet for entries 2 to 8, in order: ., 16%, ., -15%, -6%, ., -10%

Next entries follow:
9) Cc1ccc(OCC(=O)Nc2cccc(OCc3cc(=O)n4ccccc4n3)c2)cc1C
10) Cc1c(C(=O)Oc2cc(N)n(S(C)(=O)=O)n2)cccc1[N+](=O)[O-]
11) Cc1cc(OCC(=O)NCCN2CCOCC2)ccc1Br
12) O=S(=O)(Nc1nc2ccccc2nc1NCc1ccco1)c1ccccc1
13) O/N=C\c1ccccc1Oc1ccc(F)cc1
14) Cc1c(NC(=O)Cc2cccs2)cccc1[N+](=O)[O-]
15) CC(C)Oc1c(N2CCOCC2)c(=O)c1=O
16) CC1CN(CC(=O)NC(C)c2ccccc2)CC(C)O1 (configuration not stated)

assay / compound	9	10	11	12	13	14	15	16
2A StopGo	-19%	-9%	21%	0%	-9%	16%	-14%	5%
Cruzain inh noDet	-7%	.	-14%	-8%	.	.	.	.
Cruzain inh Det	4.8%	.	-8.6%	-6.5%	.	.	.	.
NS1 inh	.	.	5%	-60%	-3%	.	0%	14%
RE007 growth inh	.	4%	-20%	15%	-3%	4%	25%	-2%
MARV entry inh	.	-12%[46.1 µM]	4%	21%	19%[46.1 µM]	-4%[46.1 µM]	.	.
LASV entry inh	13%[46.1 µM]	-1%	-9%	19%	-6%	-12%	.	.
SARS PLpro yeast	.	-3%	-1%	1%	-3%	0%	2%	9%

17) COc1ccc(C(C)NC(=O)CN(c2cc(OC)ccc2OC)S(=O)(=O)c2ccccc2)cc1 (configuration not stated)
18) O=C(NCCCN1CCOCC1)c1c(F)cccc1F
19) CC1CCC(NC(=O)CSc2nncs2)CC1 (configuration not stated)
20) CCOC(=O)c1c(NC(=O)c2ccc(Br)o2)sc(C)c1CC
21) Cc1ccc(NC(=O)CSc2nc3nc(C)c(Br)cc3[nH]2)cc1F
22) COC(=O)c1sccc1NC(=O)Cc1ccc(Br)cc1
23) Cc1ccc2ncc3c(-c4ccc(F)cc4)nn(CC(=O)Nc4ccccc4C)c3c2c1
24) CN1/C(=C\C=C2/SC(=S)NC2=O)C(C)(C)c2ccccc21

assay / compound	17	18	19	20	21	22	23	24
2A StopGo	-10%	0%	17%	0%	-2%	18%	-3%	?
Cruzain inh noDet	1%	-4%	.	-23%	.	-8%	17%	.
Cruzain inh Det	-2.4%	2.4%	.	-14%	.	-6.0%	-0.8%	.
NS1 inh	.	3%	.	-1%	-6%	.	.	1%
RE007 growth inh	.	-10%	-3%	2%	-17%	-3%	.	-3%
MARV entry inh	-16%[46.1 µM]	16%	?	?	.	?	.	.
LASV entry inh	1%[46.1 µM]	-2%	3%	?	.	?	-4%[46.1 µM]	.
SARS PLpro yeast	.	-2%	6%	2%	-5%	-59%	.	0%

25) Cc1cc(Br)c(NC(=O)c2c(-c3c(Cl)cccc3Cl)noc2C)c(Br)c1
26) Cc1cc(N/N=C/c2ccccc2O)nc(-c2ccccc2O)n1
27) C/C(N)=C(/C#N)C(=O)CSc1nnc(Nc2c(C)cccc2C)s1
28) O=C(NC1=NCCS1)c1ccc(Cl)c(S(=O)(=O)N2CCc3ccccc32)c1
29) CN(C)c1ccc(NC(=O)C(=O)C2C(=O)Nc3ccccc32)cc1 (configuration not stated)
30) O=C(CCNC(=O)c1ccccc1)Nc1ccc(Cl)c(S(=O)(=O)N2CCCCC2)c1
31) CC(C)C(=O)NC(=S)Nc1ccccc1N1CCN(C(=O)c2ccccc2)CC1
32) NC(=O)CCc1nc2cc(C(F)(F)F)ccc2n(Cc2ccccc2)c1=O

assay / compound	25	26	27	28	29	30	31	32
2A StopGo	-27%	13%	5%&-9%	-24%	24%	?	?	0%
Cruzain inh noDet	.	-13%	-7%	.	.	.	.	.
Cruzain inh Det	.	-9.8%	-2.4%	.	.	.	.	.
NS1 inh	4%	-11%	?	-56%	0%	.	.	-8%
RE007 growth inh	0%	-10%	9%&7%	0%	1%	-17%	-8%	10%
MARV entry inh	.	17%	?	.	.	?	0%[46.1 µM]	?
LASV entry inh	.	18%	-3%[46.1 µM]	.	.	?	20%[46.1 µM]	-1%[46.1 µM]
SARS PLpro yeast	-2%	-70%	20%	-7%	-1%	0%	1%	1%

33) CSc1ccc(Cl)c(C(=O)OCC(=O)N2CC(C)OC(C)C2)c1 (configuration not stated)
34) O=C(O)Cc1c(C(=O)O)[nH]c2ccc(C(=O)O)cc12
35) COCc1ccc(C(=O)NCC2(N3CCCCC3)CCCCC2)cc1
36) COc1ccc(C(=O)Nc2ccccn2)cc1
37) CCn1c(C)nc2cc(-c3nc4n(n3)Cc3ccccc3-4)ccc21
38) COC(=O)c1ccc2nc(NC(=O)C(C)C)sc2c1
39) COc1ccccc1C(=O)Oc1ccc2c(c1)O/C(=C\c1ccncc1)C2=O
40) CCc1ccc(NS(=O)(=O)c2ccc3c(c2)oc(=O)n3C)cc1

assay / compound	33	34	35	36	37	38	39	40
2A StopGo	?	0%	3%	5%	0.79µM*	7%	-3%	-12%
Cruzain inh noDet	13%	.	.	-18%	8%	.	22%	.
Cruzain inh Det	-5.3%	.	.	-0.4%	3.9%	.	-9.4%	.
NS1 inh	-2%	-2%	0%	8%	-14%	.	3%	5%
RE007 growth inh	2%	1%	-5%	10%	5.6µM*	-3%	.	5%
MARV entry inh	-2%	11%	-12%[46.1 µM]	18%[46.1 µM]	?	?	?	.
LASV entry inh	1%	4%	?	13%	?	?	5%	.
SARS PLpro yeast	-3%	1%	2%	4%	-33%	-1%	-2%	2%

41) Cc1ccc(N(CC(=O)NN=C2CCN(C)CC2)S(=O)(=O)c2ccccc2)c(C)c1
42) O=C(Nc1cc(F)cc(F)c1)c1ccc(NCCc2ccccc2)c([N+](=O)[O-])c1
43) CCOC(=O)c1[nH]c2c(c1-c1ccc(OC)cc1)C(=O)CC(c1ccc(OC)c(OC)c1)C2 (configuration not stated)
44) COc1ccccc1CNc1ccc(-c2nc(C(C)C)no2)cc1[N+](=O)[O-]
45) Cc1nc2c(ccc3nc(NC(=O)c4ccc(S(=O)(=O)N(C)C)cc4)sc32)s1
46) O=C(NCc1ccc(Cl)cc1)C(=O)NCC(c1cccs1)S(=O)(=O)c1cccs1 (configuration not stated)
47) CCOc1ccc(C(=O)Nc2ccc(OCc3cc(=O)n4cccc(C)c4n3)cc2)cc1
48) Fc1cccc(Cl)c1CSC1=NCCS1
49) C[C@@H]1CC=C[C@H]2[C@H]1C(=O)N(Cc1ccccc1)[C@H]2c1ccc(-c2ccc(N(C)C)cc2)cc1F
50) CC(C)CCn1c(Oc2ccccc2F)nc2c1c(=O)n(C)c(=O)n2C

assay / compound	41	42	43	44	45	46	47	48	49	50
2A StopGo	-12%	-4%	-12%	9%	.	-18%	-11%	20%	?	?
Cruzain inh noDet	5%	-6%	?	?	?	7%	14%	.	.	2%
Cruzain inh Det	-1.8%	-3.5%	-5.0%	-3.6%	-1.3%	-5.1%	1.2%	.	.	0.5%
NS1 inh	4.5µM*	12%	-12%	.	-14%	.	.	7%	21%	.
RE007 growth inh	.	-25%	-4%	.	-26%	.	.	-20%	24%	.
MARV entry inh	9%	-23%	16%	?	-4%	.	.	11%[46.1 µM]	.	.
LASV entry inh	-1%	-1%	6%	-3%[46.1 µM]	-13%	?	10%[46.1 µM]	8%	.	-22%[46.1 µM]
SARS PLpro yeast	4%	-5%	14%	.	8%	.	.	1%	0%	.

Record cards, from the list above:
Record of `CC(C)CCn1c(Oc2ccccc2F)nc2c1c(=O)n(C)c(=O)n2C` : 2A StopGo: ?; Cruzain inh noDet: 2%; Cruzain inh Det: 0.5%; NS1 inh: .; RE007 growth inh: .; MARV entry inh: .; LASV entry inh: -22%[46.1 µM]; SARS PLpro yeast: .
Record of `Cc1nc2c(ccc3nc(NC(=O)c4ccc(S(=O)(=O)N(C)C)cc4)sc32)s1` : 2A StopGo: .; Cruzain inh noDet: ?; Cruzain inh Det: -1.3%; NS1 inh: -14%; RE007 growth inh: -26%; MARV entry inh: -4%; LASV entry inh: -13%; SARS PLpro yeast: 8%
